Bioassay records (PubChem)
CtBP-E1A inh = CtBP/E1A binding inhibition. AlphaScreen GST-E1A/His-CtBP binding, 1536-well; hits give low values; control for the full effect not named in the record. activity change, % (concentration not given with the values). 340,000 tested, 0.49% active. AID 651724; in the data active means activity change below about -65%; inconclusive means about -30% to -65%; inactive means above about -30%; further: on the % scale 0 is the no-effect control and ±100 the full control effect
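Steps: dispense buffer (Tris pH 8.0, NaCl 300 mM, TCEP 1 mM, BSA, Tween 20); add 5X protein mix (GST-E1A, His-CtBP, 125 nM each); pin 23 nL compound; 2 h at 37 °C, dark; add 5X beads (50 ug/mL); 1 h; read.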
D2 agonist = agonists of human D2 dopamine receptor (beta-arrestin); P14416; DiscoveRx PathHunter D2 beta-arrestin, luminescence, 90 min; 100% = 57 uM dopamine signal; activation, % (test concentration not listed); 360,000 tested, 0.084% active; in the data active = activation above about 40%; inconclusive = about 15% to 40%; inactive = below about 15%; further: compound concentration not given in the record; the text of the record calls up to 30% inactive
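Agonist mode: compounds alone added to overnight-plated D2 PathHunter cells for 90 min at 37 C, with 57 uM final dopamine (EC100) defining full response. Beta-arrestin recruitment detected by chemiluminescent reagent, read after 1 h at ambient temperature.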
Six1-Eya2 blk = blocks human Six1 binding to Eya2 | Q15475+O00167 | AlphaScreen GST-Six1/His-Eya2 binding, biochemical; hits give low values; control for the full effect not named in the record | activity change, % (concentration not given with the values) | 360,000 tested, 0.56% active; in the data active = activity change below about -65%; inconclusive = about -30% to -65%; inactive = above about -30%; further: on the % scale 0 is the no-effect control and ±100 the full control effect
Target sequence (O00167 whole entry, looked up): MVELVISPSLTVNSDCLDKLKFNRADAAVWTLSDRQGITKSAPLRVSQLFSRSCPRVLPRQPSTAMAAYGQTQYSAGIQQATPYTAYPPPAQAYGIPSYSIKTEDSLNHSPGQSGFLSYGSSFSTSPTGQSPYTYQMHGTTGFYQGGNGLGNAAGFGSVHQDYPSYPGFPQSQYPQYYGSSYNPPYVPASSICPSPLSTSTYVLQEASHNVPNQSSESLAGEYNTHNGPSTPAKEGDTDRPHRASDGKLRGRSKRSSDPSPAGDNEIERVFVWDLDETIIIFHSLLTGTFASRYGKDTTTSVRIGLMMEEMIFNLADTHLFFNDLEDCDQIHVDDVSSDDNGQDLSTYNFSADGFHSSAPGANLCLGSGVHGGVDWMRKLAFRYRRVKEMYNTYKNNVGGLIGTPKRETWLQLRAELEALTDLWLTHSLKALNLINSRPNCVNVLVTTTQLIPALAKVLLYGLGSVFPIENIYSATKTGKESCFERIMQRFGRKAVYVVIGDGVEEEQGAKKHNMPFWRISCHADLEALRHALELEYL
Target sequence (Q15475 whole entry, looked up): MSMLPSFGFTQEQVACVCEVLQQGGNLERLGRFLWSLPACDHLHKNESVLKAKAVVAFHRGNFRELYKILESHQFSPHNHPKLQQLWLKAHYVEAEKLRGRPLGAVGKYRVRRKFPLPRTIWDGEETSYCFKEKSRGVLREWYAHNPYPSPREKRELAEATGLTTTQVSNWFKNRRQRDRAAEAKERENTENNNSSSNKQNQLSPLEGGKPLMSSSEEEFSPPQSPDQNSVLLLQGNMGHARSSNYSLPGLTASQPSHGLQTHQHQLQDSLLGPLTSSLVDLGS
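AlphaScreen luminescence read after one hour at 37 °C in darkness. Pin-transferred compounds met GST-Six1 and His-Eya2 protein (5X stock 250 nM/500 nM) plus glutathione donor and Ni-chelate acceptor beads (5X, 50 ug/mL).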
gsp antag = antagonists of gsp mutant (McCune-Albright syndrome) | 340,000 tested, 0.4% active | Potency, µM (highest dose often 76.9 µM), for the others: at the highest dose activity change, negative = inhibition, most hits filed as inhibitors | gsp-mutant cells, cAMP HTRF, 30 min; control for the full effect not named in the record | AID 624288; active = falling curve of any shape with a large fitted effect; inconclusive = falling curve, mostly with a smaller effect; inactive = flat or rising curve; cell line not stated here;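 further: intracellular cAMP measured with PDE inhibitor Ro 20-1724 present during compound exposure; potency means the concentration at half of the fitted maximal effect; on the % scale 0 is the no-effect control and ±100 the full control effect; nearly all actives have a fitted effect of over 65% in size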
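Cells in G418 medium, seeded 16-24 h, 37C; buffer exchange to DPBS + 1 mM CaCl2, 0.5 mM MgCl2, 0.05% BSA; cpds in DMSO + […] (300 uM stock), 30 min 37C; HTRF cAMP detection.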
gsp agonist = agonists of gsp mutant (McCune-Albright syndrome); gsp mutant cells, cAMP HTRF, 30 min; control for the full effect not named in the record; Potency, µM (titrated, usually from 76.9 µM), for inactives: at the top dose activation (cAMP increase), most hits filed as activators; AID 624287; 340,000 tested, 0.13% active; active = well fitted activation curve with a large enough effect; inconclusive = small, poorly fitted or top-dose-only effect, or another doubt; inactive = no such curve, though single readings can be large or run the other way; cell line not stated here;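 further: phosphodiesterase inhibitor Ro 20-1724 added with compounds to block cAMP breakdown; potency means the concentration at half of the fitted maximal effect; nearly all actives have a fitted effect of over 60% in size; about a fifth of the inactives were tested at one dose only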
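Cells stably selected in G418 were plated at 2000/well, grown 16-24 hr, then given compounds in DMSO with the PDE inhibitor […] (300 uM solution added) for 30 min at 37C; cAMP was read by HTRF.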
D2 potentiator = positive allosteric modulators of human D2 dopamine receptor; potentiation, % (no concentration beside the values); P14416; AID 624464; 360,000 tested, 0.23% active; DiscoveRx D2 beta-arrestin cells, luminescence, 90 min; 100% = 57 uM dopamine signal; active = potentiation of 50% or more; inconclusive = 30% to 50%; inactive = 30% or less;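 further: compound concentration not given in the record; tested on top of an EC20 dose of dopamine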
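PathHunter D2 cells, attached overnight at 37 deg C, received compound in DMSO plus dopamine at EC20 (50 nM final) for 90 min at 37 deg C. Beta-arrestin recruitment was read as luminescence after 1 h with detection reagent at ambient temperature.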
An asterisk follows results filed as active; ? = inconclusive; . = no result given; [ ] = remark or other dose.

Below each SMILES – CtBP-E1A inh	D2 agonist	Six1-Eya2 blk	gsp antag	gsp agonist	D2 potentiator
- CC(C)Cn1c(-c2ccccc2)nc(=S)c2c1CCCC2
 : -3.8	-2.4	1.1	8.6%	21.7%	-16.7
- C[C@@H](C(=O)NCCc1ccccc1F)N1C(=O)N2CCc3c([nH]c4ccccc34)[C@@]2(C)C1=O
 : -9.3	4.1	-7.4	-25.7%	.	-12.0
- COc1ccccc1CN1C[C@@H]2C[C@@H](C3=Cc4cccc(OC)c4OC3)N3CCC[C@@]23C1=O
 : -5.2	-4.9	1.4	-10.7%	11.2%[15.4 µM]	-7.1
- O=C(COC(=O)Cc1ccsc1)Nc1cccc(F)c1
 : 1.4	-4.3	9.7	9.8%	0.2%	-4.9
- CC(=O)/C(=N\Nc1ccccc1)Sc1nncn1C
 : -4.9	0.1	-6.5	10.6%	-35.0%[inhibitor]	-4.0
- CCOC(=O)CC(=O)Nc1ccc(C(=O)OCC)cc1
 : 2.1	1.3	1.5	-7.1%	-7.9%	-3.0
- CSc1nc(-c2ccccc2)c2cc(Cl)ccc2n1
 : .	-6.5	12.1	-21.7%	0.8%	-7.4
- O=C(COC(=O)Cc1ccc(Cl)cc1Cl)NCc1ccco1
 : -2.2	-4.2	6.8	.	-9.6%	-14.0
- CN(CC12CC3CC(CC(C3)C1)C2)C(=O)c1ccco1
 : -5.3	-5.9	4.4	-6.2%	-8.1%	-15.9
- O=C(NC(=S)Nc1cccc(CO)c1)c1ccc(-c2ccccc2)cc1
 : -20.2	-0.3	-19.9	?	26.4%	-13.3

Later entries.
Below each SMILES – CtBP-E1A inh	D2 agonist	Six1-Eya2 blk	gsp antag	gsp agonist	D2 potentiator
- COc1cccc(C(=O)NNC(=O)CCc2ccccc2)c1
 : -5.9	-3.6	-1.5	12.6%	-14.1%[15.4 µM]	-5.0
- CC1(/[N+]([O-])=C/c2ccc(Cl)cc2Cl)CCCCC1=O (stereo not drawn)
 : 5.5	-0.1	1.4	-2.8%	15.3%[15.4 µM]	-8.2
- O=C1N=C(N2CCN(c3ccccc3)CC2)SC1Cc1ccccc1 (stereo not drawn)
 : -1.6	0.3	4.2	0.6%	-13.9%	-13.1
- CC1(Cc2ccc(S(C)(=O)=O)cc2)C(=O)Nc2ccc(Cl)cc21 (stereo not drawn)
 : -14.5	-3.7	4.2	.	.	-5.8
- COc1cc(OC)cc(C(=O)NC(=S)Nc2ccc3oc(=O)ccc3c2)c1
 : 3.3	0.0	-0.1	5.9%	2.0%	-2.0
- CC(=O)Nc1ccc(C(=O)OCC(=O)NC(=O)NC(C)(C)C)cc1
 : -6.2	0.8	3.5	5.9%	-46.4%[inhibitor]	3.0
- O=C(N/N=C/c1c[nH]c2ccccc12)C1CC1(c1ccccc1)c1ccccc1 (stereo not drawn)
 : -3.9	-2.4	-18.9	-11.2%	-17.6%	17.8
- COC(=O)c1cccc(NC(=O)c2ccc3c(c2)C(=O)N(Cc2cccnc2)C3=O)c1
 : -11.3	2.2	-7.7	?	-13.4%	-3.7
- CCOc1ccc(/C=C2\SC(=S)N(CCC(=O)Nc3ccccc3C(=O)O)C2=O)cc1
 : -1.2	12.0	0.3	0.2%	-27.7%[15.4 µM]	6.7
- O=C(Cn1cc(S(=O)(=O)Cc2ccc([N+](=O)[O-])cc2)c2ccccc21)N1CCOCC1
 : 4.9	-1.3	-11.7	-4.5%	30.8%[15.4 µM]	2.2

(next part)
Below each SMILES – CtBP-E1A inh	D2 agonist	Six1-Eya2 blk	gsp antag	gsp agonist	D2 potentiator
- COC(C/C=C/C(=O)COCc1ccccc1)OC
 : -1.0	0.4	0.1	-0.5%	.	-31.8
- CC(C)[C@H](NC(=O)c1ccccc1)C(=O)OCC(=O)c1ccc2c(c1)NC(=O)CO2
 : 4.8	-3.2	21.8	-2.8%	-0.1%	6.2
- COc1ccc(Cc2nc3ccc(C(=O)N4CCCC4)cc3o2)cc1OC
 : -0.2	9.2	3.4	-27.7%	-4.0%	-0.4
- O=c1/c(=C\c2cccc(O)c2)sc2nc(-c3ccccc3)c(-c3ccccc3)n12
 : .	1.8	-4.2	-12.8%	1.3%	-1.8
- COc1ccc(OC)c(NC(=O)C2CCC(CNc3c(N4CCC(C)CC4)c(=O)c3=O)CC2)c1 (stereo not drawn)
 : -13.7	-3.3	-8.0	-14.1%	13.2%	-5.5
- NS(=O)(=O)c1ccc(NC(=S)NCc2ccc(F)cc2)cc1
 : 7.0	2.2	-4.3	10.3%	20.9%	-1.3
- COc1ccc(-c2noc(-c3ccco3)n2)cc1OC
 : 4.3	-0.2	-2.5	6.3%	-2.8%	5.9
- O=C(Nc1ccccc1Cl)C1CCN(Cc2cnn(-c3ccccc3)c2-n2cccc2)CC1
 : -15.3	-4.0	-26.9	12.0%	2.4%	-40.6
- CN(CC(=O)Nc1c(Cl)cccc1Cl)C(=O)C1CCN(C(=O)Nc2ccccc2)CC1
 : -1.4	1.7	5.2	9.7%	-29.6%	10.2
- CCOC(=O)N1C(=O)[C@@](CC)(c2ccccc2)N1C(=O)OCC
 : 7.8	-1.5	1.4	14.0%	.	-6.1

More compounds:
Below each SMILES – CtBP-E1A inh	D2 agonist	Six1-Eya2 blk	gsp antag	gsp agonist	D2 potentiator
- Cn1nc(C(F)(F)F)cc1C(=O)NC1CCCCCC1
 : 1.0	-2.4	1.9	-0.2%	-13.1%	-5.4
- CCOc1ccc(-c2nc(CSCC(=O)NC3CCN(Cc4ccccc4)CC3)c(C)o2)cc1
 : -2.0	-1.8	-9.5	.	-32.0%[inhibitor]	-27.5
- CN1C(=O)C(=C2CCCCCC2)SC1=S
 : -4.2	1.0	-5.1	-17.5%	-2.4%	2.2
- O=C(COC(=O)/C=C/c1ccc(OC(F)F)cc1)NC1CCCCCCC1
 : 6.2	-3.9	-3.2	12.0%	-27.8%	-4.9
- CC1(C)CC(=O)C2=C(C1)Oc1ncn(CCCO)c(=N)c1C2c1ccccc1 (stereo not drawn)
 : -11.0	-1.0	3.6	1.3%	-20.1%	-0.7
- c1coc(Cn2nnnc2CN2CCN(C3CCCCC3)CC2)c1
 : 10.0	-0.4	4.9	9.0%	5.2%	-17.6
- CSC1=N/C(=C\c2cccnc2)C(=O)N1c1ccccc1
 : 0.4	-6.3	4.7	-22.6%	17.4%[15.4 µM]	-8.7
- O=C(Cc1c(Cl)cccc1Cl)OCc1ccccn1
 : 2.1	-0.9	0.5	5.4%	5.0%[15.4 µM]	-2.6
- O=C(Cn1nc(Br)nc1Br)c1ccccc1
 : -29.9	0.0	7.3	7.3%	-10.9%[15.4 µM]	-4.8
- COc1cccc(CNC(=O)c2ccc(NS(=O)(=O)c3ccc4[nH]c(=O)[nH]c4c3)cc2)c1
 : .	-0.2	-23.7	7.5%	-1.6%	-3.5

Remaining list, next part.
Below each SMILES – CtBP-E1A inh	D2 agonist	Six1-Eya2 blk	gsp antag	gsp agonist	D2 potentiator
- COc1ccc(NC(=O)Nc2ccccc2C(N)=O)cc1
 : .	-4.8	1.2	-9.4%	8.0%	-9.3
- Cc1noc(C)c1C(=O)Nc1nc2ccccc2s1
 : 4.6	-1.1	-6.0	-7.4%	6.1%[15.4 µM]	-4.1
- COC1CCCCC1NS(=O)(=O)c1ccc(Cl)cc1 (stereo not drawn)
 : 9.5	2.6	6.3	-4.4%	-6.1%	-6.2
- CC(C)(O)C#Cc1ccc(C(=O)NC(CCCNC(N)=O)C(=O)O)s1 (stereo not drawn)
 : -0.3	-2.2	1.9	-9.4%	-1.9%[15.4 µM]	-9.1
- CCOc1ccc(-c2nn3c(-c4ccccc4)nnc3s2)cc1
 : ?	-1.8	-15.0	0.5%	-42.8%[inhibitor]	-1.7
- O=C1OC(N2CCN(C(=O)c3ccco3)CC2)c2ccccc21 (stereo not drawn)
 : -0.2	5.9	4.1	9.9%	-33.0%	-12.1
- Cc1cccc(OCC(=O)N/N=C/c2ccccc2C(=O)O)c1
 : 8.4	-3.3	14.3	15.3%	-2.2%[15.4 µM]	-3.2
- C/C(=N\NC(=O)CC#N)C1COc2ccccc2O1 (stereo not drawn)
 : 0.0	2.5	-1.6	9.1%	-2.7%[15.4 µM]	-7.0
- Cc1sc(NC(=O)CCC(=O)O)c(C#N)c1C
 : .	-3.8	12.7	3.0%	-0.8%	-4.9
- COCCN1CCc2c(C)nc3c(-c4ccc(OC)c(OC)c4)cnn3c21
 : -15.5	-4.0	-15.9	-12.8%	-21.2%	-16.7

Further results follow.
Below each SMILES – CtBP-E1A inh	D2 agonist	Six1-Eya2 blk	gsp antag	gsp agonist	D2 potentiator
- COc1ccc2nc(SC)c(C#N)cc2c1
 : 9.2	-0.1	4.0	11.0%	1.1%[15.4 µM]	4.5
- Cc1cccc(NC(=S)NCc2ccc(F)cc2)c1C
 : -5.2	3.0	10.8	4.5%	-24.0%[15.4 µM]	-4.8
- COC(=O)C(NC(=O)Nc1ccccc1OC)C(C)C (stereo not drawn)
 : 3.3	-1.5	3.9	-0.7%	?	-14.7
- CC(C)N1C/C(=C/c2ccsc2)C(=O)/C(=C/c2ccsc2)C1
 : 2.3	-9.1	3.9	-12.2%	-27.3%	-10.3
- NNC(=O)CC1=NNC(=O)C1
 : -6.0	-1.2	-2.9	7.2%	-18.4%	-3.0
- CCOC(=O)Cc1csc(NC(=O)Cc2ccccc2[N+](=O)[O-])n1
 : 1.1	4.3	0.0	-3.8%	-51.9%[inhibitor]	-5.7
- Cc1ccc(N2CC(C(=O)OCC(=O)Nc3ccc(Cl)cc3)CC2=O)cc1 (stereo not drawn)
 : -16.2	-2.3	6.1	-2.4%	-57.6%[inhibitor]	-0.9
- O=C1C(c2ccccc2)CN1Cc1ccccc1 (stereo not drawn)
 : 11.8	4.8	0.1	.	.	-1.8
- O=[N+]([O-])c1ncccc1OCc1ccccc1Br
 : -9.5	-3.8	-7.4	-5.2%	14.9%	-4.5
- COC(=O)CN1C(=O)Nc2ccc(C)cc2C1c1ccccc1 (stereo not drawn)
 : 7.9	-2.3	-3.2	-8.2%	-0.7%	-8.0

Shown field by field: entries from further up
> Cc1cccc(NC(=S)NCc2ccc(F)cc2)c1C
  CtBP-E1A inh: -5.2	D2 agonist: 3.0	Six1-Eya2 blk: 10.8	gsp antag: 4.5%	gsp agonist: -24.0%[15.4 µM]	D2 potentiator: -4.8

> COC(=O)C(NC(=O)Nc1ccccc1OC)C(C)C (stereo not drawn)
  CtBP-E1A inh: 3.3	D2 agonist: -1.5	Six1-Eya2 blk: 3.9	gsp antag: -0.7%	gsp agonist: ?	D2 potentiator: -14.7

> CC(C)N1C/C(=C/c2ccsc2)C(=O)/C(=C/c2ccsc2)C1
  CtBP-E1A inh: 2.3	D2 agonist: -9.1	Six1-Eya2 blk: 3.9	gsp antag: -12.2%	gsp agonist: -27.3%	D2 potentiator: -10.3

> NNC(=O)CC1=NNC(=O)C1
  CtBP-E1A inh: -6.0	D2 agonist: -1.2	Six1-Eya2 blk: -2.9	gsp antag: 7.2%	gsp agonist: -18.4%	D2 potentiator: -3.0
